# HCMV NEC inh: inhibitors of HCMV UL50-UL53 interaction, biochemical, HTRF. HCMV UL50-UL53 nuclear egress complex (human cytomegalovirus). normalized percent inhibition. inhibition, % (no concentration beside the values). 190,000 compounds, 0.15% hits. AID 1918969, 2023;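 active = both replicates at 50% or more, plus weaker picks with an unusually low signal ratio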;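 also: stock transfer was 100 nL into about 20 µL; 0% = negative control wells and 100% = wells with untagged competitor protein; inactives centre near -12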
# Sa growth 42C: S. aureus growth inhibition at 42 and 30 °C, primary screen, LtaS inhibitor project, RN4220, two temperatures | 170,000 compounds, 0.53% hits | relative growth, % (concentration not given with the values) | AID 720641, 2013 | OD600, 20 h, 42 °C; hits give low values;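 active = growth at 42 °C up to 50% and 20 or more points under that at 30 °C, or under 10% at both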;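 also: 300 nL library stock went into each well; scaled to the means of positive and negative controls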
# GIV Gai3 FP: inhibitors of GIV peptide binding to Galpha-i3, primary screen, biochemical, fluorescence polarization, FITC-GIV GBA peptide, rat Galphai3 | Guanine nucleotide-binding protein G(i) subunit alpha-3 (Rattus norvegicus), P08753 | 90 min; hits give low values; scaled: aluminum fluoride 0%, vehicle 100% | percent of control (FP), % (no concentration beside the values) | 210,000 compounds, 0.42% hits;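 active = replicate mean at 85% of control or lower, very high polarization wells dropped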;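 also: wells of about 15 µL received 100 nL stock; the first replicate is given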
# Target sequence (P08753 whole entry, looked up): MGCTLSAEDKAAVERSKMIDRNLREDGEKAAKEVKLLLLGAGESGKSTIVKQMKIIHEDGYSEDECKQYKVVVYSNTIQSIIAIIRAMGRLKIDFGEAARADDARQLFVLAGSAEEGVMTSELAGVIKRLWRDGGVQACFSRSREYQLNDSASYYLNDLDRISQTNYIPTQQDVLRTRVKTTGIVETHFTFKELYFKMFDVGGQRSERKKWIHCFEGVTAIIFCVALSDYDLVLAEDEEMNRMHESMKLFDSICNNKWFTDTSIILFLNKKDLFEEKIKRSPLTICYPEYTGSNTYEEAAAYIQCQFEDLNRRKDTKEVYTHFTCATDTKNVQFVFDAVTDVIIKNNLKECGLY
# Sa growth 42C second temp: further read-out of Sa growth 42C, marked with its call; relative growth, %; measured here: growth at 30 °C;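 optical density after 20 h as mean of two plates; 100% = untreated growth and lower means inhibition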
# Active calls of the source: *; x = not tested or not shown; & = joins results of further samples. Not a hit list, and some 0.79% of all compounds hit somewhere here.
SMILES,HCMV NEC inh,Sa growth 42C,Sa growth 42C second temp,GIV Gai3 FP
CC1=Nc2cc(C(=O)O)ccc2Sc2c(C)ccc(C)c21,x,87,72,97
CC(=O)Nc1ccc(N2CCN(C(=O)c3ccco3)CC2)cc1,-14,103,102,111
O=c1c2c(nc3nc(NCc4c(F)cccc4Cl)[nH]n13)CCC2,x,114,97,102
Cn1c(SCc2ccc(F)cc2)nc2ccc(C(=O)NCCc3ccc(Cl)cc3)cc21,x,100,88,101
O=C(Nc1ccccc1-c1ccccc1)C1CCCO1 (stereo unspecified),-16,101,102,109
O=C(c1ccc(Cl)cc1)c1oc2ccccc2c1-c1cnn(-c2ccccc2)c1,-17,98,76,x
COCCn1c(CNC(=O)c2ccc(C)cc2)nc2cccnc21,x,110,83,105
CCOC(=O)c1sc2ccc(NC(C)=O)cc2c1C,0,120,96,101
CCCNC(=O)CSc1nnc(-c2cccnc2)n1C1CCCCC1,19,91,115,103
Cc1ccc(C)c(N2CCN(C(=O)C3CCN(Cc4nc(-c5cccc(Cl)c5)oc4C)CC3)CC2)c1,-12,x,x,110
O=C(Cn1c2ccccc2c2cn[nH]c(=O)c21)NC1CCCC1,9,85,72,107
CCN1CCn2c1nc(N1CCCCC1)nc2=O,-9,97,88,102
CCOc1ccc(N2C(=O)CC(NCCNC(=O)c3ccc(Cl)cc3)C2=O)cc1 (stereo unspecified),7,83,72,103
Cc1cnc2c(c1SCC(=O)N1CCC(C)CC1)c(=O)n(C)c(=O)n2C,-30,81,79,96
Cc1cccc(C)c1Nc1nc2c(C)cc(C)c(C)c2s1,-21,88,88,100
COc1ccc(Cn2c(=O)c(=O)oc3ccccc32)cc1OC,-8,93,88,97
CC1CN(Cn2[nH]c(=O)ccc2=O)CC(C)O1 (stereo unspecified),-7,88,119,105
Cc1ccc(CNC(=O)C2(C)CCN(C(=O)c3ccc(Cl)cc3)CC2)cc1,-17,x,x,103
CC(C)CCNC(=O)CCCCn1c(=O)c2ccccc2n(CC(=O)NCc2ccccc2Cl)c1=O,-18,x,x,97
Cc1ccccc1C1NC(=S)NC2=C1C(=O)CC(C)(C)C2 (stereo unspecified),-8,92,88,104
O=C(Nc1ccc(F)cc1Cl)C1CCN(c2nc3ncccc3n3cccc23)CC1,-24,x,x,100
CCOc1ccc(/C=C/c2nc(C#N)c(NCc3ccc(OC)cc3)o2)cc1,-42,99,83,99
COc1cccc(N2CCN(CC(=O)NCC(F)(F)F)CC2)c1,-28,97,90,x
COC(=O)c1ccc2c(=O)n3nc(NCCc4ccccc4)sc3nc2c1,14,102,100,103

# Among those listed so far, these contain fluorine:
SMILES,HCMV NEC inh,Sa growth 42C,Sa growth 42C second temp,GIV Gai3 FP
O=c1c2c(nc3nc(NCc4c(F)cccc4Cl)[nH]n13)CCC2,x,114,97,102
Cn1c(SCc2ccc(F)cc2)nc2ccc(C(=O)NCCc3ccc(Cl)cc3)cc21,x,100,88,101
O=C(Nc1ccc(F)cc1Cl)C1CCN(c2nc3ncccc3n3cccc23)CC1,-24,x,x,100
COc1cccc(N2CCN(CC(=O)NCC(F)(F)F)CC2)c1,-28,97,90,x

# The listing continues.
SMILES,HCMV NEC inh,Sa growth 42C,Sa growth 42C second temp,GIV Gai3 FP
CC(C)CNC(=O)c1cccc(NC(=O)C(C)C)c1,0,115,112,104
Cc1cc(F)ccc1S(=O)(=O)N(CC(=O)N1CCOCC1)CC(=O)N1CCOCC1,-20,73,86,x
CCOC(=O)c1scc(-c2ccc(C)cc2)c1S(=O)(=O)Nc1cc(Cl)ccc1OC,x,105,85,101
CC(=O)Nc1ccc(NC(=O)C(C)OC(=O)c2cc(-c3ccco3)nc3ccccc23)cc1 (stereo unspecified),-42,92,67,x
Clc1ccc(-c2cc(C3CCNCC3)[nH]n2)cc1,6,x,x,102
COc1cccc(N2CCN(C(=O)c3ccc(/C=C4\Oc5ccccc5N(C)C4=O)cc3)CC2)c1,x,94,81,98
COc1ccc(Cl)cc1Nc1ncnc2c1nc1n2CCCC1,x,109,98,101
COc1ccc(CCCc2nnc(SCC(=O)Nc3ccccc3)o2)cc1C,-20,98,92,103
Cc1ccc2nc(Cn3c(=O)c(N4CCOCC4)nc4ccccc43)cc(=O)n2c1,-39,81,95,x
CCc1ccc(-c2cc3c(=O)[nH]nc(SCc4nc(-c5ccc6c(c5)OCO6)no4)n3n2)cc1,4,x,x,107
Cc1ccc(/C=C2\SC(=S)N(CCC(=O)Nc3ccc(S(=O)(=O)Nc4nccs4)cc3)C2=O)cc1,4,x,x,104
COc1ccc(NC(=O)c2cncc(NS(=O)(=O)c3ccc(F)cc3)c2)cc1,-26,105,91,103

# Some of the entries so far, tab-delimited.
Structure	HCMV NEC inh	Sa growth 42C	Sa growth 42C second temp	GIV Gai3 FP
CCOC(=O)c1sc2ccc(NC(C)=O)cc2c1C	0	120	96	101
Clc1ccc(-c2cc(C3CCNCC3)[nH]n2)cc1	6	x	x	102

# Remaining list, next part
SMILES,HCMV NEC inh,Sa growth 42C,Sa growth 42C second temp,GIV Gai3 FP
CCOc1ccc(S(=O)(=O)N(CC(=O)NCCSCc2ccccc2)c2ccccc2)cc1,3,96,91,95
CN(C)/C=N/NC(=O)c1nc(-c2cccc(-n3cccc3)c2)no1,-36,98,87,104
O=C(CCN1CCCCC1)c1ccccc1,-8,94,82,105
CCCn1c(=S)[nH]c2cc(C(=O)NCc3ccccc3)ccc2c1=O,x,107,87,102
COc1ccc(C(=O)Cn2c(=O)c(CCC(=O)O)nn3c4ccccc4nc23)cc1OC,x,111,85,92
CC1CCCCN1C(=O)Cn1cc(C#N)c2ccccc21 (stereo unspecified),8,102,86,103
CC(NC(=O)c1cc(-c2ccc(Cl)cc2)on1)c1ccccc1 (stereo unspecified),7,96,94,107
Cc1ccc(-n2ncc3c(NC4CCCC4)ncnc32)cc1,x,114,84,99
Cc1ccc(COc2ccc(C3CC(=O)Nc4c3c(C)nn4-c3ccc4nncn4n3)cc2)cc1 (stereo unspecified),-5,x,x,102
CCCNC(=O)CCC1CCCCC1,-34,79,92,x
Cc1nc2c(C(=O)NC(C)C)cnn2c(C)c1Cc1c(F)cccc1Cl,x,82,84,101
O=C(CCOc1ccccc1)N(Cc1cccnc1)c1nc2c(F)cc(F)cc2s1,x,124,94,106
COc1ccc(OC)c(S(=O)(=O)NCCc2csc(-c3ccc(Cl)cc3)n2)c1,-28,x,x,101
Cc1nonc1-c1csc(N)n1,-27,110,86,105
CC(C)OCCCNCc1ccc2c(c1)n(C)c(=O)n2C,-7,x,x,99
O=C(Nc1cccnc1)c1ccc(NC(=O)C2OCCc3ccccc32)cc1 (stereo unspecified),-14,96,93,104
CCOc1ccc2c(c1)sc(=NC(=O)CCOc1ccccc1)n2C,x,97,81,100
CC(=O)NC1C(=O)N(CCc2ccccc2)c2ccc(C)cc21 (stereo unspecified),-8,106,69,104
Cc1ccc(NC(=O)CN2C(=O)c3ccccc3S/C2=C\C#N)cc1C,-17,102,77,x
COc1ccc(C)c2sc(N(Cc3cccnc3)C(=O)C3CCCCC3)nc12,x,99,73,100
Cn1c(=O)c(=O)n(C)c2c3nsnc3ccc21,-75,80,90,104
CCCOc1ccc(C2C(=O)N(C3CCCCC3)CC(=O)N2CCc2ccccc2)cc1OC (stereo unspecified),x,101,96,108
O=C(Nc1c2c(nn1-c1cccc(Cl)c1)CS(=O)C2)c1cccc(Br)c1 (stereo unspecified),x,116,88,103
Cc1ccc(NC(=O)c2ccc(-n3nnc4cccnc43)cc2)cc1Cl,-15,x,x,116
COc1ccc(OCC(=O)Nc2c(C(=O)N3CCN(c4ccccc4)CC3)oc3ccccc23)cc1,x,95,88,105
CCc1ccc(NC(=O)CCn2c(=O)c3cccn3c3cccnc32)cc1,-16,105,91,103
Clc1nc2ncccc2nc1-c1ccccc1,x,76,76,105
O=C(N/N=C/c1cc2c(cc1Br)OCO2)c1ccc(CN2CCOCC2)cc1,-1,105,109,108
NC(=S)n1[nH]c(-c2ccccc2)c(N=Nc2ccccc2O)c1=O,-20,75,58,176
O=c1c2ccccc2c(C=NCc2cccnc2)c(O)n1-c1ccccc1C(F)(F)F,-32,102,84,x
O=C(CSc1nnc(-c2ccc([N+](=O)[O-])cc2)o1)Nc1ccccc1,-97,104,80,93
COc1ccc(OC)c(-c2cc(C(=O)Nc3ccc(C)c(C)c3)no2)c1,-9,112,96,106
CCS(=O)(=O)c1ccc(O)c(N=Cc2c(O)[nH]c(=S)[nH]c2=O)c1,15,89,103,x
CCOC(=O)Cn1cc(S(=O)(=O)N2CCC(C)CC2)c(S(=O)(=O)N2CCC(C)CC2)c1,-29&-1,93,87,105&101
C/C(=N\O)c1ccc(Cl)cc1,-10,x,x,102
COC(=O)c1c(SC)nc2ccccc2c1OCc1cccc(C)c1,x,102,86,95
CCN(Cc1cc(Cl)cc(Cl)c1)C(=O)c1cnc(OC)cc1C(F)(F)F,-16,87,86,106
Cc1nc(OCC2CN(Cc3ccccc3)CCO2)c2ccccc2n1 (stereo unspecified),-2,87,95,x
CN(CC1COc2ccccc2O1)C(=O)c1ccc(Cl)cc1Cl (stereo unspecified),-3,123,102,x
CCN(CC)CC(C)CNC(=O)CN1C(=O)CSc2ccc(S(=O)(=O)N3CCOCC3)cc21 (stereo unspecified),x,98,98,106
O=C(NCc1ccccc1Cl)c1cc(=O)[nH]c2ccc(S(=O)(=O)N3CCCCC3)cc12,-17,106,88,104
Cc1ccc(-c2csc(=S)n2CC(=O)O)cc1,-6,99,98,x
O=c1cc(C(F)(F)F)nc(-c2ccccc2OC(F)(F)F)[nH]1,1,114,81,108
C/C(=N/NC(N)=S)C1C(=O)c2ccccc2C1=O,-132,89,76,104
Cc1cc2nc(SCCOC(=O)Nc3ccc(Cl)cc3)nc(C)c2cc1C,-8,87,84,x
C=CCNCCOc1cccc(CC)c1,-12,106,95,106
COc1ccccc1NCn1c(=O)sc2ccccc21,-28,90,93,x
CC(C)Oc1ccc(C(=O)Nc2ccc3oc(-c4ccncc4)nc3c2)cc1,-31,103,106,106
COc1ccc(CCNC(=O)Cc2c(C)c3c(cc(C)c4c(C)coc43)oc2=O)cc1,-16,123,84,100
CCCc1nn2c(=O)cc(COC(=O)c3ccc(NC(=O)C(C)Oc4ccccc4)cc3)nc2s1 (stereo unspecified),x,86,94,96
O=C(O)COc1ccc2nccnc2c1,-42,111,81,102
CCc1ccc(-c2cn3nc(N4CCC(C(=O)NCCOC)CC4)sc3n2)cc1,-24,x,x,107
Cc1cc(N=Cc2c(O)ccc3ccccc23)no1,103*,96,102,-9.8*
COc1ccc(CN2C(=O)c3ccccc3CC2(C)C(=O)NC2CCCCC2)cc1 (stereo unspecified),11,91,92,108&107
COc1ccc2c(c1)CC(C(=O)NCCN1CCN(c3cccc(C)c3C)CC1)CO2 (stereo unspecified),x,95,85,104
Cc1nn(-c2ccccc2)nc1C(=O)Oc1c(Cl)cccc1Cl,22,85,96,99
CCOC(=O)C1CCN(S(=O)(=O)c2ccc3c(c2)CCN3C(=O)CCC(=O)N2CCCC2)CC1,1,x,x,102
Cc1cc2[nH]c(=O)c(=O)[nH]c2cc1S(=O)(=O)N(C)C1CCCCC1,x,106,83,98
CCn1c(SCc2ccccc2)nnc1C1CCCCC1,-13,102,101,103
COc1cccc(NS(=O)(=O)c2ccc3[nH]cc(C(=O)NC(C)c4ccccc4)c(=O)c3c2)c1 (stereo unspecified),-11,103,70,102

# Other compounds:
SMILES,HCMV NEC inh,Sa growth 42C,Sa growth 42C second temp,GIV Gai3 FP
Cc1nc(NC2CCN(CC(=O)Nc3ccc4c(c3)OCCO4)CC2)[nH]c(=O)c1C,20,96,87,101
O=C(Nc1ccc(Br)cc1)Nc1ccc2nc3n(c(=O)c2c1)CCCC3,6,x,x,96
CCCOc1ccc(NC(=O)C2CC(=O)N(C(C)C)C2)cc1 (stereo unspecified),-4,93,87,x
N#Cc1cc(C#N)c(SCc2cc3c(cc2Br)OCCO3)nc1N,12,79,101,x
CCn1cc(C(=O)NCCC(C)C)c(=O)c2cc(S(=O)(=O)N(C)C)ccc21,-21,92,90,98
COc1cccc(CNCC2CCCO2)c1OCC(=O)NC(C)(C)C (stereo unspecified),-4,121,82,97
Cc1ccc(Cl)cc1Nc1c2c(nc3ncnn13)CCC2,-27,x,x,104
CC1CC(=O)Nc2ccccc2N1C(=O)CSc1ccc2c(c1)OCCCO2 (stereo unspecified),0,97,96,x
COc1ccccc1NC(=O)COc1ccc(/C=N/n2cnnc2)cc1OC,-17,96,65,103
CCN(Cc1nc2cc(OC)c(OC)cc2c(=O)[nH]1)C(=O)NC(C)(C)C,-20,103,90,x
COC(=O)c1sccc1NC(=O)c1cc(-c2ccc(OC)c(OC)c2)nc2ccccc12,-10,x,x,107

# 2 records picked at random from the list so far, as already listed:
SMILES,HCMV NEC inh,Sa growth 42C,Sa growth 42C second temp,GIV Gai3 FP
CCCOc1ccc(NC(=O)C2CC(=O)N(C(C)C)C2)cc1 (stereo unspecified),-4,93,87,x
COC(=O)c1sccc1NC(=O)c1cc(-c2ccc(OC)c(OC)c2)nc2ccccc12,-10,x,x,107

# Screening data (PubChem BioAssay)
